Ab BasE inh: inhibitors of Acinetobacter baumannii siderophore enzyme BasE; AID 485350; inhibition, % (test concentration not listed); purified BasE, fluorescence polarization binding displacement; actives 0.1% (n = 84,000);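 active = both replicates above 25% with normal brightness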;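 also: 0% = negative plate control signal and 100% = positive plate control signal; stock transfer was 100 nL into about 30 µL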
KSHV LANA nucl: LANA-nucleosome interaction inhibition; actives 0.3% (n = 51,000); AID 720717; FITC-LANA1-23 / chicken nucleosome fluorescence polarization; active compounds read low; z-score (no concentration beside the values);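 active = both repeat wells score below -2 in polarization z-score versus plate sample wells, excluding overly bright wells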;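 also: 100 nL library stock added to about 30 µL; numbers are from one replicate; some results filed as inactive read as strong as hits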
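System – purified chicken nucleosomes with FITC-labelled LANA N-terminal peptide (1-23) · Amount – 240 nM purified chicken nucleosomes (480 nM peptide binding sites), final · Also added – 50 nM FITC-LANA1-23 probe · Medium – TEN-BT buffer, pH 7.5 · Incubation – compound with peptide–nucleosome mix 10–45 min at room temperature · Detection – fluorescence polarization, ex 480 nm, em 535 nm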
Active calls of the source: *; . = not tested or not shown. These rows are one share of the data, so the mix of outcomes need not match the whole.

No.	mol	Ab BasE inh	KSHV LANA nucl
1	Cc1ccc(-n2nc(CN3CCOCC3)c(-c3ccccc3)c2N)c(C)c1	2.6	-1
2	COc1ccc(OC)c(/C=N/NC(=O)Cc2nc3ccccc3[nH]2)c1	-0.4	0.066
3	N=P(N1CCOCC1)(N1CCOCC1)C12CC3CC(CC(C3)C1)C2	1.5	.
4	CCOC(=O)c1cc(NC(=O)CC(C)(C)CC(=O)O)ccc1N1CCCCC1	1.0	.
5	COc1ccc(N2CCN(CCN3CCCCC3)CC2)cc1	-2.5	0.65
6	S=C(Nc1ccc(Cl)cc1)NN1CCOCC1	1.4	-1.4
7	NC(=O)NC(=O)/C=C/c1ccccc1O	1.6	.
8	CC1=CC(=C2C(=O)c3ccccc3C2=O)C=C(C)N1C(C)C	15	-0.71

An excerpt from above in order of their number in KSHV LANA nucl, falling.
no.	compound	KSHV LANA nucl
5	COc1ccc(N2CCN(CCN3CCCCC3)CC2)cc1	0.65
2	COc1ccc(OC)c(/C=N/NC(=O)Cc2nc3ccccc3[nH]2)c1	0.066
8	CC1=CC(=C2C(=O)c3ccccc3C2=O)C=C(C)N1C(C)C	-0.71
1	Cc1ccc(-n2nc(CN3CCOCC3)c(-c3ccccc3)c2N)c(C)c1	-1
6	S=C(Nc1ccc(Cl)cc1)NN1CCOCC1	-1.4

(continued)
No.	mol	Ab BasE inh	KSHV LANA nucl
9	CC1CCc2sc(NC(=O)C3CC3)c(C#N)c2C1 (stereo not given)	1.7	-0.48
10	c1ccc(-c2cnc(-c3cccs3)o2)cc1	0.1	.
11	COC(=O)/C(=C/c1c[nH]c2ccccc12)NC(C)=O	0.7	.
12	CC1CCC2(CC1)NC(=O)N(NC(=O)COC(=O)CCc1ccccc1)C2=O (stereo not given)	0.7	.
13	CCN1C(=O)/C(=C(/C#N)C(=O)C(C)(C)C)c2ccccc21	-4.1	.
14	CN(Cc1ccccc1)C(=O)COc1ccc(-n2ccnc2)cc1	-0.6	.
15	O=C1CCC(C(=O)NNc2c(F)c(F)cc(F)c2F)=NN1	1.5	.

Part of the list above, with each value named:
(10) c1ccc(-c2cnc(-c3cccs3)o2)cc1
  Ab BasE inh = 0.1	KSHV LANA nucl = .
(3) N=P(N1CCOCC1)(N1CCOCC1)C12CC3CC(CC(C3)C1)C2
  Ab BasE inh = 1.5	KSHV LANA nucl = .
(7) NC(=O)NC(=O)/C=C/c1ccccc1O
  Ab BasE inh = 1.6	KSHV LANA nucl = .
(4) CCOC(=O)c1cc(NC(=O)CC(C)(C)CC(=O)O)ccc1N1CCCCC1
  Ab BasE inh = 1.0	KSHV LANA nucl = .

Screening results (PubChem)
